BJeLR viability: BJeLR cell viability loss; BJeLR (HRASV12) viability, CellTiter-Glo ATP luminescence, 48 h; reference of the scale not given here; inhibition, % (test concentration not listed); 0.17% of 300,000 active;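 active = replicate mean above 50%; inconclusive = above 50% but judged a plate artefact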;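 also: 50 nL library stock added to about 25 µL; numbers are from one replicate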
PrP 5UTR inh: inhibition of PrP 5' UTR reporter expression; inhibition, % (concentration not given with the values); AID 488862; cell-based PrP 5' UTR mRNA reporter, plate reader; 0.35% of 340,000 active;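 active = every replicate at 50% or more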;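 also: 0 = median of the neutral control wells; tested in H4 reporter cells; numbers are from one replicate; inactives centre near -14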
RN4220 kill: S. aureus RN4220 growth inhibition; OD600, 16 h; AID 1259311; 0.33% of 330,000 active; inhibition, % (no concentration beside the values);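 active = z-score of -3 or lower and OD600 up to 0.18 on both plates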;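 also: plate controls were untreated cells for no effect and reference antibiotic for full effect; stock transfer was 100 nL into about 80 µL; one replicate is shown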
Mtb hypoxia inh: reduces hypoxia-regulated biosensor signal in M. tuberculosis; 0.1% of 300,000 active; fluorescence inhibition, % (test concentration not listed); AID 1159583; M. tuberculosis hypoxia-regulated fluorescent reporter, fluorescence;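 active = 35 to 45% if threefold the growth effect, above 45% if 1.5-fold the growth effect; inactive = the rest, general growth blockers included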;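 also: wells of about 50 µL received 100 nL stock; 0% = vehicle wells and 100% = reference inhibitor wells; whole bacteria with a GFP reporter of the hypoxia response; strong numbers were not always called active; many hits fall short of the cut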
Sa ugtP lethal: kills S. aureus RN4220 lacking UgtP. S. aureus RN4220 ugtP deletion, OD600 growth, 16 h; some inactives read as strong as hits. growth inhibition, % (no concentration beside the values). 0.54% of 330,000 active;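 active = z-score under -3 and OD600 up to 0.15 on both plates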;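 also: plate controls were untreated wells for no effect and antibiotic for full effect; wells of about 80 µL received 100 nL stock; the first replicate is given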
Bead autofluor: flagged as autofluorescent in microsphere protease counterscreen; 3.1% of 360,000 active; compound autofluorescence counterscreen, microsphere flow cytometry; active compounds read high; fluorescence intensity (no concentration beside the values);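 active = at least 3 SD above the mean of all compounds, about 16000 in these data; inconclusive = too few beads counted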;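 also: 100 nL of 1 mM stock went into each well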
Mtb hypoxia inh growth: recorded beside Mtb hypoxia inh, whose call it bears; growth inhibition, %; measured here: M. tuberculosis growth (absorbance);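 0% = vehicle and 100% = reference antibiotic; read after six days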
Numbers without * were called inactive; ? = inconclusive; · = not tested or not shown.

SMILES	BJeLR viability	PrP 5UTR inh	RN4220 kill	Mtb hypoxia inh	Mtb hypoxia inh growth	Sa ugtP lethal	Bead autofluor
CCOC(=O)CSc1nnc(CNC(=O)c2ccc(OC)cc2)n1Cc1ccccc1	·	-22	2.5	11	6	-1	8296
CCCC(=O)NCCCc1nc2ccccc2[nH]1	0	8	15	4	9	1	4448
CCn1c2ccccc2c2cc(/C=N/n3cnnc3)ccc21	-9	-15	·	·	·	·	6354
Cc1onc(-c2ccccc2Cl)c1C(=O)N1CCN(C=O)CC1	-12	-10	2.1	-4	2	3	6762
C/C(=N/NC(=O)Cc1cc(=O)[nH][nH]1)c1ccc([N+](=O)[O-])cc1	-7	-21	·	·	·	·	2442
CC(C)(C)Nc1nc(SCC(=O)Nc2ccccc2Cl)nc(N2CCOCC2)n1	-7	3	7.0	-1	5	12	4961
CCCCN(C(=O)c1ccc(NC2CC2)c([N+](=O)[O-])c1)c1c(N)n(CCCC)c(=O)[nH]c1=O	·	-14	5.3	2	-2	1	6601
COc1cccc(CNC(=O)Cn2nc(C)c([N+](=O)[O-])c2C)c1	0	8	2.5	11	2	5	3419
CC(C)(O)C#Cc1ccc(CN2CCN(CCc3ccccc3)C(CCO)C2)s1 (stereo unspecified)	2	-13	-1.1	0	2	4	2351
CN(C1CCCC1)C1CCN(C(=O)CNC(=O)/C=C/c2ccc(F)cc2)CC1	4	-10	2.9	5	3	11	7845
O=C(COC(=O)c1cnccn1)Nc1ccc(Cl)cc1C(F)(F)F	-6	-3	0.3	9	11	6	4363
COc1ccc2[nH]c(C)c(CCNCc3cccnc3)c2c1	·	-17	2.1	16	29	8	5026
Cc1ccc(C2NC(=O)CCC2[N+](=O)[O-])cc1 (stereo unspecified)	-2	-30	1.6	-2	-3	6	4570
Cn1c2cc(Br)sc2c2cnn(Cc3ccc(F)cc3F)c(=O)c21	·	-21	6.8	-3	-1	4	2878
Cc1cccc(N2CCN(C(=O)CNC(=O)Cc3ccccc3)CC2)c1C	·	-4	-0.9	-8	-6	-3	4075
CCOc1ccc(NC(=S)N2CCC(N(C)CCN3CCOCC3)CC2)cc1	-7	-6	-5.0	-4	-5	2	2479
O=C(CSc1nc(=O)[nH]c2c1CCCC2)Nc1ccc(F)cc1F	9	-2	-1.9	-2	2	3	?
CCc1c(C)c2nncn2[nH]c1=O	-2	-8	-1.8	·	·	-3	3920
O=C(c1cccc(S(=O)(=O)N2CCOCC2)c1)N1CCN(c2ccccc2)CC1	·	-2	7.4	7	2	2	4012
COc1ccc(-c2cn[nH]c2-c2ccc(OCc3ccc([N+](=O)[O-])cc3)cc2O)cc1OC	3	-22	18	-2	-13	6	4036
CCC(NC(=O)CCc1c(C)c2cc3c(C)c(C)oc3cc2oc1=O)C(=O)N[C@@H](Cc1ccccc1)C(=O)O (stereo partly specified)	-6	0	6.7	·	·	4	5741
Cc1cc(C)nc(SCC(=O)c2ccc([N+](=O)[O-])cc2)n1	1	-20	7.0	·	·	13	3748
Cn1c(N)c(C(=O)COC(=O)CNS(=O)(=O)c2ccc(Cl)c(Cl)c2)c(=O)n(C)c1=O	6	-13	-1.4	-5	1	-2	2911
N=C1CCCN1c1ccccc1O	-4	-6	3.4	8	-4	3	4538
O=C(NCCOc1nc(N2CCOCC2)nc(N2CCOCC2)n1)Nc1ccc(Cl)cc1	-5	-23	-2.4	5	13	-11	11489
COc1ccc(C(=O)Nc2ccc3c(c2)OCCO3)cc1	·	-13	-1.1	3	-3	4	11788
C=CCn1c(=O)c2c(nc(-c3ccc(S(=O)(=O)O)cc3)n2C)n(C)c1=O	-4	-17	7.3	7	4	-1	6126
O=C(Cn1cnc2ccccc2c1=O)NC1CCS(=O)(=O)C1 (stereo unspecified)	-7	-3	3.3	7	-6	-1	5727
Oc1ccccc1C=NN1CCCCCC1	·	-81	14	5	7	2	3752
CC1(C)CC(=O)C(N=Nc2ccc(OC(F)F)cc2)=C(O)C1	-7	-15	6.0	3	2	5	2408
COCc1cc(CN2CCCC(C(=O)Nc3cccc(-n4cnnn4)c3)C2)ccc1OC (stereo unspecified)	-5	1	·	·	·	·	5782
Cc1ccc(NS(=O)(=O)c2ccc(C)c(C(=O)NCC(c3ccccc3)N(C)C)c2)cc1 (stereo unspecified)	·	·	5.5	13	10	6	5557
CCOC(=O)Cc1csc(NC(=O)CSc2nnc(Cc3csc(N)n3)n2C)n1	-6	-2	-0.5	·	·	5	4570
CC1=C(C(=O)OCC(C)C)C(c2ccc(Br)s2)NC(=O)N1 (stereo unspecified)	3	-30	7.6	3	7	2	4055
CC(C)CN=Cc1c(O)c([N+](=O)[O-])cc2oc3c(c12)CCCC3	3	-8	8.0	9	0	1	2159
O=C(CCn1[nH]c(=O)c2ccccc2c1=O)NCCO	-5	-22	2.7	11	-4	5	8976
CCOc1ccc(C2NC(=O)c3ccccc3O2)cc1OCC (stereo unspecified)	-3	-1	1.8	8	7	0	·
COc1ccccc1C1CC(=O)NC(C)=C1C(=O)OCC(C)C (stereo unspecified)	0	-24	2.8	·	·	-1	2583
COc1ccc(-c2ccc(N(C)C)cc2)cc1[C@H]1[C@H]2C=CC[C@@H](C)[C@@H]2C(=O)N1Cc1ccccc1	1	-21	·	·	·	·	3610
Cc1ccc(S(=O)(=O)N2CCCCC2)cc1C(=O)OCC(=O)N1c2ccccc2NC(=O)C1(C)C	·	-8	5.1	8	6	5	3794
O=C(NCCC1CCCCN1S(=O)(=O)c1ccccc1)C(=O)NCC1CCCO1 (stereo unspecified)	2	0	1.1	14	4	1	4712
Cc1c(CN(C)C)c2c(n1C)C(=O)c1ccc(Br)cc1-2	-8	-2	5.2	11	4	0	11906
Cc1cc(OCC(=O)Nc2ccc(CN3CCCCC3)cc2)ccc1Cl	4	-8	-0.1	13	5	-2	5135
COc1ccccc1/C=C/C(=O)NCC(=O)N/N=C(\CCC(=O)O)c1ccccc1	2	0	·	·	·	·	2106
O=C(CNC(=O)C12CC3CC(CC(C3)C1)C2)Nc1ncccc1O	·	-30	-3.1	-8	8	-1	4247
C=C(C)Cn1c(=O)c(NC(=O)c2ccccc2)c2n(c1=S)CCC2	0	-25	3.4	·	·	1	2895
CCC1CCCCN1CCCNC(=O)CSc1nc2nc(C)c(Cc3ccccc3Cl)c(C)n2n1 (stereo unspecified)	-3	-20	0.5	7	7	10	6242
CC(C)C(NC(=O)C(CCCN=C(N)N)NC(=O)NC(Cc1ccccc1)C(=O)O)C(=O)NC(C=O)CCCN=C(N)N (stereo unspecified)	·	·	6.2	18	14	-8	·
COc1ccc(S(=O)(=O)NNC(=O)C2Cc3c(ccc4ccccc34)O2)cc1 (stereo unspecified)	-10	-14	9.1	9	15	-8	9375
S=c1[nH]nc(-c2ccccc2)n1N=Cc1cccc(Br)c1	·	·	14	-2	-2	3	·
O=C(OCC(=O)N1CCCCC1)c1ccc2ccccc2n1	·	-12	3.2	5	11	0	5395
Cc1nn(-c2ccccc2)c(C)c1/C=N/n1cnnc1	-17	-14	·	·	·	·	4277
CCCOc1ccc2ccccc2c1/C=C1\SC(=O)NC1=O	5	-20	3.9	12	4	19	3341
O=C(COC(=O)c1ccc2c(c1)OCCO2)NCCC1=CCCCC1	9	-36	-0.4	·	·	-1	3989
O=C(CN1CCN(S(=O)(=O)c2ccc(Br)cc2)CC1)N/N=C/c1ccccc1C(=O)O	3	-17	·	·	·	·	5046
O=C(O)c1cccc(Nc2nc(C(F)(F)F)nc3ccccc23)c1	-3	-15	-2.4	14	5	6	4588
O=C(CN1CCN(c2ccc(Cl)cc2)CC1)Nc1cccc(F)c1	-1	-9	2.6	·	·	-2	2173
CCOC(=O)C1=C(C)NC(SC)=NC1c1ccccc1 (stereo unspecified)	9	-17	0.6	·	·	5	4647
COc1ccc(-c2nnc(SCc3cc(C)cc(C)c3)o2)cc1	0	-15	11	-6	2	94*	6187
CCC(=O)NC(=S)NNC(=O)COc1ccc(Br)cc1	2	-39	15	-5	2	-9	2507

Profiles as entered above.
`O=C(COC(=O)c1ccc2c(c1)OCCO2)NCCC1=CCCCC1` is listed with BJeLR viability: 9; PrP 5UTR inh: -36; RN4220 kill: -0.4; Mtb hypoxia inh: ·; Mtb hypoxia inh growth: ·; Sa ugtP lethal: -1; Bead autofluor: 3989
`O=C(CNC(=O)C12CC3CC(CC(C3)C1)C2)Nc1ncccc1O` is listed with BJeLR viability: ·; PrP 5UTR inh: -30; RN4220 kill: -3.1; Mtb hypoxia inh: -8; Mtb hypoxia inh growth: 8; Sa ugtP lethal: -1; Bead autofluor: 4247

Next compounds:
SMILES	BJeLR viability	PrP 5UTR inh	RN4220 kill	Mtb hypoxia inh	Mtb hypoxia inh growth	Sa ugtP lethal	Bead autofluor
CCN1CCN(C(=S)Nc2cc(C(=O)OC)ccc2C(=O)OC)CC1	3	-88	-3.9	1	-9	-5	3630
Cc1ccc(S(=O)(=O)NCC(=O)N(CC(=O)NCC2CCCO2)Cc2ccccc2Cl)cc1 (stereo unspecified)	-5	-5	3.4	-15	-7	4	3576
CCC(=O)N1CCc2cc(S(=O)(=O)CCC(=O)NCCc3ccccc3)ccc21	2	-28	-1.7	-14	-4	-1	3799
COc1cc(C=NNC(=O)c2ccc(COc3cc(C)ccc3C(C)C)cc2)cc(OC)c1O	·	·	12	8	4	-16	·
CCn1c(SCC(=O)N2CCN(c3ccccc3)CC2)nnc1-c1ccoc1C	6	-8	-5.5	·	·	-1	4202
CC1CCN(C(=O)c2[nH]cnc2C(=O)Nc2cccc(Cl)c2)CC1	·	-19	-0.4	5	3	-3	4418
Cc1cc2cc(C#N)c(N3CCN(S(C)(=O)=O)CC3)nc2cc1C	-5	-19	7.4	10	9	2	6887
Cc1cc(Br)c2c(c1)C(O)(N1CCCCC1C)C(=O)N2 (stereo unspecified)	-9	11	2.8	12	-4	-3	2130
COc1ccccc1NS(=O)(=O)c1cc(NC(=O)c2cccs2)ccc1N1CCCCC1	-13	-18	6.8	15	7	-7	2017
O=C(CSc1nc2[nH]c(=O)cc(O)c2s1)Nc1nccs1	·	-4	3.7	-4	-1	-17	3791
CCOC(=O)C1CCCN(CC(=O)NC2=Nc3ccccc3N=C(C)C2c2ccccc2)C1 (stereo unspecified)	2	-2	5.9	·	·	-6	?
COc1ccccc1NS(=O)(=O)c1ccc(C(=O)N2CCCC(C(F)(F)F)C2)cc1 (stereo unspecified)	·	-20	8.4	5	0	-1	6697
NC(=O)C1(N2CCCCC2)CCN(C(=O)Nc2ccccc2C(F)(F)F)CC1	7	·	6.2	5	1	6	·
CSc1ccc(CNC2CC2)cc1	-8	-12	5.4	17	4	9	7765
O=C(CSc1nnc(-c2cccs2)o1)OC1CCCCC1	4	-58	4.5	-6	-2	-2	9074
Cc1nn(CCOc2ccccc2)c(=O)n1-c1c(F)cccc1F	4	-50	5.7	9	11	-3	9007
COC(=O)C1=NNC(C(=O)c2ccco2)C1c1ccc(OC)cc1 (stereo unspecified)	0	-19	2.8	0	2	9	4494
O=C(CCn1c(=S)oc2ccccc21)Nc1ccc(F)cc1	-5	-17	17	8	2	0	2184
CC1=NOC(=O)C1=Cc1ccc(-c2ccc(Cl)c(C(=O)O)c2)o1	·	·	3.2	5	9	2	·
CN1CCN(CCOc2ccc(-c3ccccc3)cc2)CC1	-5	-58	1.2	25	11	4	4831
Cc1cccc(NC(=O)CSc2nc3c(oc4ccccc43)c(=O)n2-c2ccccc2)c1	9	4	-0.9	8	11	-6	2117
O=C(CN1C(=O)C2CC=CCC2C1=O)NC1CCCCC1 (stereo unspecified)	1	-8	3.0	9	5	4	3312
COc1ccc(CN2C(=O)c3ccccc3C2=O)cc1C(=O)OC(C)C(=O)NC(N)=O (stereo unspecified)	-3	-12	-2.9	-4	3	-2	2082
COCCN(C(=O)COC(=O)C12CC3CC(CC(C3)C1)C2)c1c(N)n(Cc2ccccc2)c(=O)[nH]c1=O	·	-12	0.9	8	6	-3	·
CCC1=C(OC(=O)N(CC)CC)N2C(=O)OC(=NCCc3c[nH]c4ccccc34)[C@]2(Cc2ccccc2)C2C1=CCC1C(=O)NC(=O)C12 (stereo partly specified)	·	·	1.8	12	10	3	·
CSc1ccccc1NC(=S)NN=Cc1cccn1Cc1ccc(F)cc1	·	·	13	6	-5	-5	·

Three structures out of the list, sorted by SMILES length, lowest first:
SMILES	BJeLR viability	PrP 5UTR inh	RN4220 kill	Mtb hypoxia inh	Mtb hypoxia inh growth	Sa ugtP lethal	Bead autofluor
O=C(CN1C(=O)C2CC=CCC2C1=O)NC1CCCCC1 (stereo unspecified)	1	-8	3.0	9	5	4	3312
CSc1ccccc1NC(=S)NN=Cc1cccn1Cc1ccc(F)cc1	·	·	13	6	-5	-5	·
Cc1cccc(NC(=O)CSc2nc3c(oc4ccccc43)c(=O)n2-c2ccccc2)c1	9	4	-0.9	8	11	-6	2117
